2A StopGo = FMDV 2A StopGo reporter, luciferase signal; human cells with a luciferase reporter of 2A StopGo recoding; control for the full effect not named in the record; Potency, µM (titrated, usually from 57.9 µM), inactives show at the top dose signal change, negative = less light; hit rate 1.2% among 410,000; active = well fitted falling curve with a large enough effect; inconclusive = small, poorly fitted or top-dose-only effect; inactive = no such curve, though single readings can be large or run the other way; tested in HEK293T cells; note: % is set by controls: 0 for no effect and ±100 for the full control effect; nearly all actives have a fitted effect of over 45% in size; luciferase light after 4 h
SARS PLpro yeast = SARS-CoV PLP inhibition in yeast; Potency, µM (series often up to 32.9 µM), for inactives: top-dose activity, positive = growth rescue; S. cerevisiae expressing SARS-CoV PLpro, growth rescue; control for the full effect not named in the record; hit rate 0.19% among 330,000; active means well fitted rising curve with a large enough effect; inconclusive means small, poorly fitted or top-dose-only effect; inactive means no such curve, though single readings can be large or run the other way; note: 0% is about no effect; nearly all actives have a fitted effect of over 55% in size; growth read by luminescence after 48 h
RE007 growth inh = less growth of the S. pombe RE007 Vpr strain | Potency, µM (series often up to 92.2 µM), for the others: at the highest dose activity change, negative = less growth | hit rate 0.21% among 360,000 | S. pombe RE007 Vpr strain, BacTiter-Glo ATP luminescence, 24 h; control for the full effect not named in the record | AID 651644; active = well fitted falling curve with a large enough effect; inconclusive = small, poorly fitted or top-dose-only effect; inactive = no such curve, though single readings can be large or run the other way;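 note: % is set by controls: 0 for no effect and ±100 for the full control effect; nearly all actives have a fitted effect of over 50% in size; the assay follows cell death caused by Vpr and the record does not say whether a fall means rescue or toxicity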
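Fission yeast RE007 carrying one integrated HIV-1 vpr copy, seeded at OD 0.01 in PMG+AL medium with 23 nL pinned compound. Grown 24 h at 30 degrees; viability read by BacTiter-Glo luminescence after 5 min.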
Active calls of the source: *; ? = inconclusive; & = joins results of further samples; [ ] = remark or other dose. Potency is the fitted concentration of half-maximal effect. Only part of the results is shown; the hit share may differ from the screen's.

SMILES	2A StopGo	SARS PLpro yeast	RE007 growth inh
O=C(Nc1ccc(S(=O)(=O)NC2=NCCCCC2)cc1)c1ccc(Cl)c([N+](=O)[O-])c1	-2%	-4%	8%
CCOCCn1ccc2c(OCC(=O)Nc3ccccc3F)cccc2c1=O	6%	-1%	1%
COc1cc2nc(CN3CCN(S(=O)(=O)c4c(F)cccc4F)CC3)[nH]c(=O)c2cc1OC	-18%	6%	1%
O=C(COC(=O)CNC(=O)c1ccc(Cl)c([N+](=O)[O-])c1)NCC1CCCO1 (stereo not drawn)	-11%	1%	-6%
CC1CCC(NC(=O)COC(=O)c2ccc3ncsc3c2)CC1 (stereo not drawn)	-20%	-3%	-8%
C#CCOCCOCCOCCNc1nc(N2CCN(C(=O)CCCCCCCCCCNC(=O)[C@H]([C@@H](C)CC)n3cc(CCCCN=C(N)N)nn3)CC2)nc(N2CCN(C(=O)CCCCCCCCCCNC(=O)[C@H](CO)n3cc(CCCSC)nn3)CC2)n1	-3%	-27%	-10%
C[C@]12c3[nH]c4ccc(Cl)cc4c3CCN1C(=O)[C@@H](CC(=O)NCCN1CCOCC1)C[C@@H]2C(=O)N1CCOCC1	-18%	10%	7%
O=C(c1cc(S(=O)(=O)NCc2ccco2)ccc1Br)N1CCOCC1	5%	-9%	14%
Cc1ccc(C(=O)C(C)OC(=O)CNS(=O)(=O)c2ccc(C)cc2)cc1 (stereo not drawn)	9%	1%	7%
CC(C)(C)n1ncc2c(=O)n(Cc3ccc(Cl)cc3)cnc21	25µM*	-1%	-11%
COC(=O)C1=C(c2ccccc2OCc2ccccc2)C[C@@H]2CC[C@H]1N2C(=O)NCCOc1ccccc1	?	4%	4%
OCC1OC(Oc2c[nH]c3ccccc23)C(O)C(O)C1O (stereo not drawn)	-24%	-1%	4%
C[C@]12C(=O)N(c3ccc(C(F)(F)F)cc3)C(=O)N1[C@H]1c3ccccc3OC[C@@H]1[C@H]2c1ccccc1	-16%	-4%	-8%
O=C(CSc1nc2ccccc2[nH]1)Nc1cccc(S(=O)(=O)N2CCOCC2)c1	-16%	0%	2%
Cc1nnc(-c2ccc(N3CCOCC3)c([N+](=O)[O-])c2)o1	19%	2%	0%
COc1ccc(Cl)cc1NC(=O)CN(C)C(=O)c1sccc1-c1ccccc1	-18%	2%	10%
Cc1ccc(S(=O)(=O)N[C@@H](C)C(=O)OCC(=O)N2c3ccccc3NC(=O)C2(C)C)cc1	-5%	5%	-24%
COc1ccc(NC(=O)CN2C(=O)NC(C)(C3CC3)C2=O)c(OC)c1 (stereo not drawn)	-13%	-15%	2%
C=CC[C@@H](CC(=O)N[C@@H](CO)Cc1ccccc1)C(=O)N[C@H](COC(=O)[C@@H](CC=C)Cc1ccc(F)cc1)Cc1ccccc1	-11%	1%	-6%
Nc1cc(Cl)ccc1C(=O)OCC(=O)N1CCCCCC1	48%[activator]	-9%	-3%
CC(=O)c1ccc(S(=O)(=O)NCC(=O)NC(c2nc3ccccc3[nH]2)C(C)C)cc1 (stereo not drawn)	-15%	0%	14%
CCCCN1CCNC[C@H]1Cc1ccc(O)cc1	-12%	-2%	0%
COc1ccc(S(=O)(=O)N2CCOCC2)cc1C(=O)N(C)Cc1ccccc1F	12%	-1%	0%
Cc1ccc(C)c(NC(=O)COC(=O)CCNC(=O)c2ccco2)c1	-20%	4%	6%
CC(C)n1cnc2c(NCc3ccccc3)cc(Cc3ccc(F)cc3)cc21	-23%	2%	-19%
SMILES	2A StopGo	SARS PLpro yeast	RE007 growth inh
CC1CCc2sc(C(=O)NN)cc2C1 (stereo not drawn)	1%	?	24%
COc1cccc(CNC(C)C(=O)Nc2ccc(S(=O)(=O)N3CCCC3)cc2)c1 (stereo not drawn)	-22%	3%	3%
NS(=O)(=O)c1ccc(CCNC(=O)COC(=O)COc2cccc(C(F)(F)F)c2)cc1	-19%	-1%	2%
COc1ccc(CC(=O)OCCc2cc3cc(OC)c(OC)cc3c(=O)o2)cc1	-6%	-5%	7%
CCOC(=O)C1=CN(Cc2cccc(F)c2)S(=O)(=O)N(C)C1c1ccc2ccccc2c1 (stereo not drawn)	2%	12%	-5%
CSCCC(NC(=O)c1ccco1)C(=O)NCC(c1ccccc1)N(C)C (stereo not drawn)	33%[activator]	6%	1%
C[n+]1ccc(-c2ccccc2)c2ccccc21	?	0%	1%
Cc1ccccc1NC(=O)Cc1nc(COC(=O)Cc2ccccc2F)cs1	-12%	-2%	-3%
O=C(CCNC(=O)c1ccccc1Cl)NCc1ccco1	-13%	9%	-22%
CCN(CC)S(=O)(=O)c1ccc(N2CCOCC2)c(NS(=O)(=O)c2cccs2)c1	51%[activator]	-15%	12%
COc1ccc(CN2c3c(Br)cccc3C(=O)CS2(=O)=O)cc1	-5%	-62%	1%[18.4 µM]
Cc1ccc(CC(=O)Nc2ccc(S(=O)(=O)N3CCOCC3)cc2)cc1C	-3%	-2%	-3%
CCN1CCN(C(=O)C(C)Oc2ccc(S(=O)(=O)N3CCCC3)cc2C(N)=O)CC1 (stereo not drawn)	-22%	2%	-10%
NC(=O)C1CCCN(CC(=O)Nc2cc(S(=O)(=O)N3CCOCC3)ccc2N2CCCC2)C1 (stereo not drawn)	-5%	2%[6.58 µM]	-10%
C[C@H](CO)N1C[C@H](C)[C@@H](CN(C)Cc2ccc(-c3ccccc3)cc2)Oc2c(NC(=O)Cc3ccccc3)cccc2C1=O	-26%	3%	24%
C=CC[C@H](CC(=O)N(CCO)Cc1ccccc1)C(=O)N[C@@H](C)COC(=O)[C@H](CC=C)CC(=O)OC(C)(C)C	?	2%	11%
COc1ccc(-c2csc(NC(=O)c3ccccc3C(=O)O)n2)cc1	0%	4%	-9%
N#CCCN(C(=O)CCl)c1cccc(Cl)c1	?	0%	1%
C/C(=N\N=c1/sc2ccccc2n1C)c1ccccn1	46%[activator]	5%	-4%
O=C1NC(=O)N(c2ccc(Br)cc2)C(=O)/C1=C/c1ccsc1	-14%	-6%	-26%
CCN(c1ccc(NC(=O)c2ccc(Cl)nc2)cc1)C(C)C	17%	1%	-5%
C[C@H]1CN=C(Nc2ccccc2)N1CCc1ccccc1	-18%	5%	-10%
CCOc1ncccc1C(=O)OC(C)C(=O)Nc1ccc(N2CCOCC2)cc1 (stereo not drawn)	6%	2%	24%
COc1ccc(CCC(=O)Nc2ccc(OC)c(S(=O)(=O)N3CCCCC3)c2)cc1	-17%	-8%	-1%
CC(C)(C)NC(=O)/C=C/c1cccs1	16%	-7%	1%
SMILES	2A StopGo	SARS PLpro yeast	RE007 growth inh
Cc1ccc(NC(=O)CCCc2nc3ccccc3c(=O)[nH]2)c(Cl)c1	-17%	-3%	7%
COC1=C(C)C(=O)O[C@]12C(=O)C(C)=C1CCCCN3[C@H]([C@@H]4C[C@H](C)C(=O)O4)CC[C@]132	-15%	-16%	5%
O=C(COC(=O)c1cncc(Br)c1)NCc1cccs1	4%	0%	-13%
CCCCN1C(=O)C(=O)N(CC(=O)Nc2sc(C)c(C)c2C(=O)OC)C1=O	9%	1%	-11%
CC(NC(=O)c1ccccc1)C(=O)N/N=C/c1ccc(O)cc1 (stereo not drawn)	6%	1%	4%
Nc1c(C(=O)CSc2nccn2-c2ccc(Cl)cc2)c(=O)[nH]c(=O)n1C1CC1	-7%	-1%	3%
CCN(C[C@H]1N[C@@](Cc2ccccc2)(C(=O)OC)[C@H]2C(=O)N(C)C(=O)[C@@H]12)S(=O)(=O)c1ccccc1	-30%	5%	2%
COc1ccc(CC(=O)Nc2ccc(F)c(Cl)c2)cc1S(=O)(=O)N1CCOCC1	-5%	4%	9%
CCOC(=O)[C@H]1[C@H]2COc3ccc(OC)cc3[C@@H]2N2C(=O)c3ccc(C)cc3NC(=O)[C@@]12C	-3%	3%	0%
Cc1ccsc1C(=O)OCC(=O)NC1CCCC1	42%[activator]	1%	-6%
COC(=O)[C@]1(C)N[C@H](CN(C)C(=O)c2ccc(F)cc2)[C@@H]2C(=O)N(C)C(=O)[C@@H]21	7%	5%	9%
N#Cc1ccc(C(=O)OCC(=O)Nc2cccnc2Cl)cc1	-5%	-2%	-3%
CCN(C(=O)COc1cc(OC)ccc1C(C)=O)C1CCS(=O)(=O)C1 (stereo not drawn)	0%	-1%	-7%
COc1ccc(C(=O)NC(C)c2cccnc2)cc1S(=O)(=O)N(C)Cc1ccccc1 (stereo not drawn)	23%	1%	0%
CC1C(=O)NN=C1C(=O)N/N=C/c1cccs1 (stereo not drawn)	0%	1%	2%
O=C(COC(=O)C1CCCCC1)Nc1cc([N+](=O)[O-])ccc1F	-15%	-9%	7%
Cc1ccc(C(=O)Nc2ccc(F)c(S(=O)(=O)N3CCOCC3)c2)s1	?	-6%	-3%
C[C@H]1COC(=O)[C@@H](Cc2ccc(F)cc2)C/C=C\C[C@@H](CC(=O)NCCO)C(=O)N1	-19%	-9%	14%
Cn1c(N)c(C(=O)COC(=O)/C=C/c2cccc(Br)c2)c(=O)n(C)c1=O	-21%	-5%	8%
C[C@@H]1CN([C@@H](C)CO)C(=O)Cc2cc(NC(=O)Nc3ccc4c(c3)OCO4)ccc2O[C@@H]1CN(C)C(=O)NC1CCCCC1	0%	6%	-2%
CCOC(=O)[C@H]1[C@H]2COc3ccc(Br)cc3[C@@H]2N2C(=O)c3cc(Br)ccc3NC(=O)[C@@]12C	?	-10%	3%
COc1ccccc1C(=O)N(C)CC(=O)Nc1ccc(N2CCOCC2)cc1	-13%	-2%	0%
COc1ccc(CNC(=O)C[C@H]2C[C@H](C(=O)N3CCOCC3)[C@@]3(C)c4[nH]c5cc(-c6ccco6)ccc5c4CCN3C2=O)cc1OC	-16%	3%	1%
CCCCCCSc1cccc(-c2nc3ccc(Cl)cn3c2NCc2ccccc2)c1	-13%&-6%	0%	-2%&-1%
CCOc1cc(C(=O)N(C)CC(=O)Nc2cccc3ccccc23)ccc1OC	-18%	2%	3%

By substructure, those above containing an NH in an aromatic ring
SMILES	2A StopGo	SARS PLpro yeast	RE007 growth inh
COc1cc2nc(CN3CCN(S(=O)(=O)c4c(F)cccc4F)CC3)[nH]c(=O)c2cc1OC	-18%	6%	1%
C[C@]12c3[nH]c4ccc(Cl)cc4c3CCN1C(=O)[C@@H](CC(=O)NCCN1CCOCC1)C[C@@H]2C(=O)N1CCOCC1	-18%	10%	7%
OCC1OC(Oc2c[nH]c3ccccc23)C(O)C(O)C1O (stereo not drawn)	-24%	-1%	4%
O=C(CSc1nc2ccccc2[nH]1)Nc1cccc(S(=O)(=O)N2CCOCC2)c1	-16%	0%	2%
CC(=O)c1ccc(S(=O)(=O)NCC(=O)NC(c2nc3ccccc3[nH]2)C(C)C)cc1 (stereo not drawn)	-15%	0%	14%
Cc1ccc(NC(=O)CCCc2nc3ccccc3c(=O)[nH]2)c(Cl)c1	-17%	-3%	7%
Nc1c(C(=O)CSc2nccn2-c2ccc(Cl)cc2)c(=O)[nH]c(=O)n1C1CC1	-7%	-1%	3%
COc1ccc(CNC(=O)C[C@H]2C[C@H](C(=O)N3CCOCC3)[C@@]3(C)c4[nH]c5cc(-c6ccco6)ccc5c4CCN3C2=O)cc1OC	-16%	3%	1%

Going on with the list:
SMILES	2A StopGo	SARS PLpro yeast	RE007 growth inh
CN1CC(=O)N(CC(=O)Nc2ccc(N3CCOCC3)cc2)C1=O	23%	0%	8%
CN(CC(=O)Nc1cccc(F)c1)C(=O)CN1c2cccc3cccc(c23)S1(=O)=O	-9%	3%	-13%
COc1ccc(Cl)cc1NC(=O)CN(C)CC(=O)NCc1ccc(F)cc1	0%	1%	10%
COc1ccc([N+](=O)[O-])cc1NC(=O)CCNC(=O)Cn1ccc2ccccc2c1=O	-15%	3%	0%
COC(=O)C1CC(O)CN1S(=O)(=O)c1ccc2ccccc2c1 (stereo not drawn)	0%	1%	3%
CCN(C[C@H]1N[C@@](Cc2ccccc2)(C(=O)OC)[C@H]2C(=O)N(Cc3ccccc3)C(=O)[C@@H]12)S(=O)(=O)c1ccc(C(F)(F)F)cc1	0%	-1%	-8%
CN(CC(=O)Nc1cccc(F)c1)C(=O)c1cn(-c2ccccc2)nc1-c1ccc(Cl)cc1	0%	-17%	0%
CC(Cc1ccccc1)/[N+]([O-])=C\c1ccc(C(F)(F)F)cc1 (stereo not drawn)	0%	3%	19%
COCCC(C(=O)Oc1c(C(C)(C)C)cc(C)cc1C(C)(C)C)c1ccccc1 (stereo not drawn)	-30%	-5%	-10%
O=C1/C(=C\c2cccnc2)SC(=S)N1c1ccc(F)cc1	2%	0%	-7%
CCOCc1c(C(=O)N2CCN(Cc3ccc(Br)s3)CC2)oc2ccccc12	-24%	3%	2%
CCOC(=O)C1CCCN(C(=O)c2ccc(CNS(=O)(=O)c3ccc(C)cc3)cc2)C1 (stereo not drawn)	-21%	-2%	1%
CN1/C(=C\C=C(C#N)C#N)C(C)(C)c2ccccc21	-20%	1%	1%
C/C(=N\Nc1ccc(F)cc1F)c1ccc(N2CCOCC2)cc1	34%[activator]	0%	22%
C[C@@H](C(=O)OCC(=O)c1ccc(F)c(F)c1)N1C(=O)C2CCCCC2C1=O (stereo partly drawn)	-10%	-9%	-5%

High-throughput results from PubChem.
